AID504770 – growth inhibitors of E. coli YBA685 in a screen for V. cholerae RctB (chromosome II replication) inhibitors. AID 504770. actives 0.27% (n = 130,000). z-score (concentration not given with the values). E. coli YBA685 rctB-dependent plasmid, OD600 growth, 3 h; hits give low values;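 active = z-score under -2 on both plates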;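 also: wells of about 30 µL received 100 nL stock; score is relative to mean and SD of the test wells; the first replicate is given; strong numbers were not always called active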
Ba CapD inh – inhibitors of Bacillus anthracis CapD enzyme | AID 492967 | z-score (test concentration not listed) | actives 0.23% (n = 140,000) | purified CapD enzyme, fluorescence intensity read-out; hits give low values; some hits fall short of the stated cut;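 active = z-score under -4 in either of two replicates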;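 also: stock transfer was 100 nL into about 40 µL; score is relative to mean and spread of the plate; one replicate is shown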
An asterisk follows results filed as active; nt = no result given. Rows were taken by chance, and some 0.41% of all compounds hit somewhere here.

Values in the order: Ba CapD inh	AID504770
CCN(CCOC(=O)NNC(=O)c1csc(CS(=O)(=O)Cc2ccco2)n1)c1ccc(N=Nc2ccc([N+](=O)[O-])cc2)cc1
→ -0.705	nt
C(=N\n1cnnc1)/c1ccc(-c2ccccc2)cc1
→ nt	0.9
COc1ccc(-c2nnc(SCC(=O)Nc3ccc4[nH]c(=O)[nH]c4c3)n2C2CCCCC2C)cc1 (stereo not given)
→ nt	-0.6
N#Cc1ccc(COC(=O)c2ccccc2-c2ncc(-c3ccccc3)o2)cc1
→ nt	-0.4
O=C(O)CCCNC1=NCCS1
→ -0.315	0.8
O=C(COC(=O)c1ccc(S(=O)(=O)N2CCCC2)cc1)Nc1ncc(Cl)cc1Cl
→ nt	0.05
COCC(=O)NCCc1nc2ccccc2n1Cc1cc(C)ccc1C
→ -0.315	-1.05
c1ccc(-c2csc(N3CCOCC3)n2)cc1
→ -0.34	0.3
N#CCCn1cc(C(=O)CSc2n[nH]c(-c3ccc(Cl)cc3)n2)c2ccccc21
→ nt	0.1
COC(=O)c1ccc(CNC(=O)c2cccc(F)c2)cc1
→ nt	0
N#CC(C#N)=C1C=C(c2ccc3c(c2)OCCO3)Oc2ccccc21
→ nt	-0.55
CC(OC(=O)c1ccccc1)C(=O)Nc1ccc2c(c1)OCCO2 (stereo not given)
→ nt	-0.9
O=C(O)CCc1nc2ccccc2oc1=O
→ 0.055	1.8
CC(=O)Nc1cccc(OCCCNC(=O)C2CCC2)c1
→ -0.925	-0.1
COCc1cc(C)nc(SCC(=O)c2ccc(Cl)cc2Cl)c1C#N
→ -0.545	nt
O=C(O)c1nonc1-c1nonc1C(=O)O
→ -0.645	nt
Cc1ccc(NC2=NC(=S)N(c3ccccc3Cl)C23CCC(C(C)(C)C)CC3)cc1 (stereo not given)
→ -1.21	nt
CC(Sc1nnnn1Cc1cccs1)C(=O)Nc1ccc(S(=O)(=O)N2CCCCC2)cc1 (stereo not given)
→ nt	0.1
Fc1ccc(Cn2ccc(-c3ccccc3OCc3ccc(Cl)cc3)n2)cc1
→ -0.725	nt
CCOC(=O)C1=C(C)N=c2s/c(=C\c3ccc(N(C)C)o3)c(=O)n2C1c1ccc(OC)cc1OC (stereo not given)
→ 0.185	nt
CCOC(=O)c1c(CN(C)C)n(C)c2cc(Br)c(O)c(CN(C)C)c12
→ -0.775	1.4
CCCCCCNc1nc(Nc2ccc(I)cc2)nc(OC)n1
→ 0.23	-1.1
CCOc1ccc(-n2c(=S)sc3c2nc(SC)n2c4ccccc4nc32)cc1
→ -0.34	nt
O=C(O)C1CC(O)CN1S(=O)(=O)c1cccc2nsnc12 (stereo not given)
→ -0.835	0.05
Cc1cc(C(=O)COC(=O)c2ccc3c(=O)n4c(nc3c2)CCC4)c(C)n1C
→ nt	2.2
CC(C)NC(=O)n1cc(F)c(=O)[nH]c1=O
→ 0.765	-1.55
CS(=O)(=O)c1cnc(-c2ccccc2)nc1Sc1ccc(F)cc1
→ -0.185	nt
CCOc1cccc2c1OC1(CCC(C)CC1)N1N=C(c3ccco3)CC21 (stereo not given)
→ -0.725	nt
Cc1nc2ccccc2c(=O)n1/N=C/c1ccc2ncccc2c1
→ 0.26	-0.1
COc1ccc(-c2nc3cc(NC(=O)c4sc5ccccc5c4Cl)ccc3o2)cc1OC
→ 0.385	nt
CCc1ccc(NC(=O)c2cc3cc4ccc(OC)cc4nc3o2)cc1
→ 4.46	0.35
COc1ccc2[nH]cc(CCNC(=O)NC3CCCCC3)c2c1
→ 0.43	-0.9
CCC(C)n1c(N)c(C#N)c2nc3ccccc3nc21 (stereo not given)
→ 112	-0.8
CC(c1ccco1)N(C(=O)c1cccnc1Cl)c1ccccn1 (stereo not given)
→ 94.4	0.2
Cc1ccc2occ(CC(=O)Nc3ccc(OC(F)F)cc3)c2c1
→ 0.355	-0.15
C=CCn1c(SCc2ccc(Cl)cc2)nc2cc(C(=O)NCc3ccco3)ccc2c1=O
→ 15.4	1.1
O=C(/C=C/c1ccco1)OCN1C(=O)c2ccccc2C1=O
→ nt	0.2
O=C1c2ccccc2C(=O)N1CN1C(=O)c2ccccc2C1=O
→ nt	0.5
CC1(O)N(CCCC(=O)O)C(=O)OC12CCCCC2 (stereo not given)
→ -0.22	nt
Cc1ccc(C)c(N2CCN(CC(=O)c3ccc4c(c3)CCN4)CC2)c1
→ 10.1	-0.9
O=C1c2ccccc2C(=O)N1N1C(=O)c2ccccc2C1=O
→ 0.02	-1.4
CN1C(=O)c2ccc(N)cc2C1=O
→ nt	-0.45
CCOc1cc(C2C(C(=O)OCc3ccc(OC)cc3)=C(C)NC3=C2C(=O)CC(C)(C)C3)ccc1O (stereo not given)
→ 1.17	nt
COc1ccccc1N1CCN(C(=O)C(CC(C)C)NC(=O)C2CCCCC2)CC1 (stereo not given)
→ -0.485	-1
COc1ccc(N=C2SC(C(=O)Nc3ccc(OC)cc3)CC(=O)N2CCN2CCOCC2)cc1 (stereo not given)
→ -0.62	nt
CCSc1nnc(CSc2ncccn2)n1-c1cccc(C(F)(F)F)c1
→ 0.2	0.35
CCOc1cc(C2CC(=O)NC(SCC(=O)Nc3cccc(C)c3C)=C2C#N)ccc1O (stereo not given)
→ -0.225	nt
CC1CCN(S(=O)(=O)c2cc(C(=O)O)ccc2Cl)CC1
→ -0.395	-0.65
N#Cc1cc(-c2ccc(Cl)cc2)cnc1Oc1cccc(C(F)(F)F)c1
→ 0.175	nt
CC(C)c1nc(NCCO)c2nnn(Cc3ccccc3)c2n1
→ nt	0
COc1ccc2c(C)cc3nncn3c2c1
→ 2.36	-0.75
CC1CCCC(C)N1C(=O)COC(=O)c1ccccc1Oc1ccccc1 (stereo not given)
→ -0.325	-0.8
O=C(O)C1CC=CCC1C(=O)Nc1ccccc1 (stereo not given)
→ 0.355	0.7
O=C(CSc1nncs1)NC(=O)NC1CCCC1
→ nt	0.85
CC1(C)CC(=O)C2=C(C1)N(c1ccc([N+](=O)[O-])cc1)C(N)=C(C#N)C2c1cccc([N+](=O)[O-])c1 (stereo not given)
→ -0.25	nt
CC1CC(N(C(=O)c2sc3cc([N+](=O)[O-])ccc3c2Cl)c2ccccc2)c2ccccc2N1C(=O)Cc1ccccc1 (stereo not given)
→ -0.42	nt
COC(=O)c1c[nH]n2c(NC3CCCCC3)c(-c3ccc(C)cc3)nc12
→ 13.5	-0.5
COc1ccc(N(C(=O)C(C)Oc2ccccc2)C2C=CS(=O)(=O)C2)cc1 (stereo not given)
→ nt	1.6
CC(Oc1ccc(Cl)cc1Cl)c1ccnc2ncnn12 (stereo not given)
→ -0.54	-0.4
O=C(CS(=O)(=O)c1ccccc1)Nc1ccc2c(c1)C(=O)NC2=O
→ nt	-1.4

Next part:
Values in the order: Ba CapD inh	AID504770
CCCS(=O)(=O)N1CCC(C(=O)N2CCC3(CC2)OCCO3)CC1
→ 0.15	-0.6
COc1ccc(/C(O)=C2\C(=N)N(c3cc(OC)ccc3OC)C3=C(C(=O)CC(C)(C)C3)C2c2ccc3c(c2)OCO3)cc1 (stereo not given)
→ 1.17	nt
O=S(=O)(c1cccs1)N1CCN(c2nc3ccc(Cl)cc3s2)CC1
→ -0.3	0.05
O=C(O)COc1ccc(/C=C2/C(=O)NC(=O)N(c3ccc4c(c3)OCO4)C2=O)cc1
→ 0.16	nt
COc1ccccc1NC(=S)N(Cc1ccccc1)Cc1cccn1Cc1ccc(F)cc1Cl
→ 40.8	0.05
CCCS(=O)(=O)c1c(S(=O)(=O)CCC)c2c(N)cccn2c1C(=O)c1ccc(C)cc1
→ -1.92	-0.15
S=c1[nH]nc2n1CCCCC2
→ nt	-0.7
O=C(N=Nc1c(O)[nH]c2ccccc12)c1cccnc1
→ -0.77	-0.15
O=C(CN1CCOCC1)Nc1nnc(SCC(=O)N(c2ccccc2)c2ccccc2)s1
→ -0.17	nt
CSc1sc(C(=O)NN)c2c1C(O)CCC2 (stereo not given)
→ 0.63	nt
N#CC(C(=O)Nc1ccccc1)=C1CCCCC1
→ 0.105	1.35
O=C(NCCCn1ccnc1)C1CC(c2cccc(Br)c2)=NO1 (stereo not given)
→ 0.16	0
O=C(Cc1cn2ccsc2n1)N/N=C/c1ccc(N2CCCCC2)cc1
→ nt	0
CC1=C(C(=O)Nc2ccc(C(=O)NCC3COCCO3)cc2)SCCO1 (stereo not given)
→ -0.32	-0.2
CN(C)P(=O)(OCC(F)(F)F)N(C)C
→ 0.15	0.25
O=C(Nc1nnc(C2CC2)s1)C(c1ccccc1)c1ccccc1
→ -0.225	-0.05
CC(C)NC(=O)Cn1nc(Cc2ccncc2)c2ccccc2c1=O
→ 2.23	-0.2
NC(=O)CSc1nc2sc3c(c2c(=O)n1CCc1ccccc1)CCCC3
→ -0.665	nt
O=C(NC1=NCCS1)c1cc(-c2ccc3c(c2)OCO3)nc2c1cnn2Cc1ccc(Cl)cc1
→ nt	-0.15
CCN(C(=O)CSC1=NCCS1)c1ccccc1
→ -0.15	0.6
OCCn1c(SCCOc2ccc(Cl)cc2)nc2ccccc21
→ 0.35	nt
O=C(N1CCN(CCO)CC1)C(F)(F)C(F)(F)C(F)(F)C(F)(F)F
→ nt	2.25
COCCn1c(C)cc(C(=O)COC(=O)c2cccc(O)c2)c1C
→ nt	1.2
CN1C(=O)c2ccccc2N2C(=O)CCC12C(=O)OCc1ccccc1F (stereo not given)
→ nt	0.6
O=C(CCOc1ccccc1)NCCc1nc2ccccc2[nH]1
→ nt	0.05
O=C1NC(=O)C(=Cc2cccc(OCCOc3ccc([N+](=O)[O-])cc3)c2)C(=O)N1
→ 0.175	nt
CNC(=O)CSc1cn(CC(=O)N(C(C)C)C(C)C)c2ccccc12
→ 0.58	-0.6
O=C(Nc1c2c(nn1-c1ccc(F)cc1)CS(=O)(=O)C2)c1cc(Br)ccc1Cl
→ 0.44	nt
c1ccc(-c2nn3c(-c4ccccc4)nnc3s2)cc1
→ -0.86	0.5
O=C(CSc1nnc(-c2sc3ccccc3c2Cl)o1)N1CCN(C(=O)c2ccco2)CC1
→ nt	-0.5

The final 4 compounds of the section before lead into the next:
Values in the order: Ba CapD inh	AID504770
CNC(=O)CSc1cn(CC(=O)N(C(C)C)C(C)C)c2ccccc12
→ 0.58	-0.6
O=C(Nc1c2c(nn1-c1ccc(F)cc1)CS(=O)(=O)C2)c1cc(Br)ccc1Cl
→ 0.44	nt
c1ccc(-c2nn3c(-c4ccccc4)nnc3s2)cc1
→ -0.86	0.5
O=C(CSc1nnc(-c2sc3ccccc3c2Cl)o1)N1CCN(C(=O)c2ccco2)CC1
→ nt	-0.5
Cn1c(SCc2cc(=O)n3ccsc3n2)nnc1C1CC1
→ 0.235	0.15
CCc1cccc(NC(=O)c2cc3cc4ccc(C)cc4nc3s2)c1
→ 0.445	0
O=C(Nc1ccccc1SCC(O)Cn1ccc2ccccc21)c1ccc(Cl)cc1 (stereo not given)
→ 0.475	0.15
Cc1n[nH]c(C)c1C12CC3CC(CC(C3)C1)C2
→ 0.46	0.45
C=CCn1c(-c2ccc(=O)n(Cc3cccc(C(F)(F)F)c3)c2)n[nH]c1=S
→ -1.1	nt
CC12CC(NC(=O)N1c1ccc(C(=O)NCc3ccccc3)cc1)c1ccccc1O2 (stereo not given)
→ 0.015	-0.35
CCOC(=O)N1CCN(Cc2sccc2C)CC1
→ 0.105	-0.5
Cc1cc(Nc2ccc(O)cc2)n2c(nc3ccccc32)c1C#N
→ 0.755	0.25
CCN(CC)C(=O)N[C@H]1C=C2c3cccc4[nH]cc(c34)C[C@H]2N(C)C1
→ -0.06	nt
Cc1ccc(COC(=O)c2ccc3c(c2)C(=O)N(CCCN2CCOCC2)C3=O)cc1
→ nt	0.25
C1CCN2CC3C(CC2C1)CN1CCCCC31 (stereo not given)
→ 0.39	-2.05
COc1cc2[nH]c(=S)nc(NCCCOC(C)C)c2cc1OC
→ 0.375	-0.6
COc1ccc(/C=N/NC(=O)c2cc(C(C)(C)C)[nH]n2)c(OC)c1C
→ 1.25	nt
CC(C)(C)c1csc(CS(=O)(=O)c2cccs2)n1
→ -0.35	-0.2
CCOC(=O)c1ccc(-n2sc3ccccc3c2=O)cc1
→ nt	1.25
NC(=O)c1ccc(NC(=O)COC(=O)c2ccccc2I)cc1
→ 0.35	1.25
O=C1c2cccc3cccc(c23)C(=O)N1CC1CCN(S(=O)(=O)c2cccs2)CC1
→ 2.44	nt
N#CCCN(Cc1ccccc1)S(=O)(=O)c1ccc(F)cc1
→ 0.195	-0.5
COCC(C)n1c(SCc2cc(=O)n3cc(C)ccc3n2)nc2ccccc2c1=O (stereo not given)
→ nt	-0.25
CC(=O)C1=NN(c2ccccc2)C(c2ccccc2OCc2c(Cl)cccc2Cl)N1c1ccc(Cl)c(Cl)c1 (stereo not given)
→ -0.045	nt
COCc1cc(C)nc2sc(C(=O)N3CCN(c4ccccc4)CC3)c(N)c12
→ 10.2	0.35
CCS(=O)(=O)c1nc2ccccc2n1CC(=O)N(C(C)C)C(C)C
→ nt	-0.15

A second format for part of the listing above:
> CCOC(=O)N1CCN(Cc2sccc2C)CC1
  Ba CapD inh = 0.105	AID504770 = -0.5

> CCOC(=O)c1ccc(-n2sc3ccccc3c2=O)cc1
  Ba CapD inh = nt	AID504770 = 1.25

> CCc1cccc(NC(=O)c2cc3cc4ccc(C)cc4nc3s2)c1
  Ba CapD inh = 0.445	AID504770 = 0

> O=C(Nc1ccccc1SCC(O)Cn1ccc2ccccc21)c1ccc(Cl)cc1 (stereo not given)
  Ba CapD inh = 0.475	AID504770 = 0.15

Bioassay records as filed in PubChem BioAssay.
